Screening data from PubChem.
LANA-nucl inh = LANA-nucleosome interaction inhibition. FITC-LANA1-23 / chicken nucleosome fluorescence polarization; stronger effect = lower value. z-score (concentration not given with the values). hit rate 0.3% among 51,000;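 active means both repeat wells score below -2 in polarization z-score versus plate sample wells, excluding overly bright wells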;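 further: 100 nL library stock added to about 30 µL; numbers are from one replicate; some results filed as inactive read as strong as hits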
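Material: Purified chicken nucleosomes with FITC-labelled LANA N-terminal peptide (1-23) | Reagent: 50 nM FITC-LANA1-23 probe | Medium: TEN-BT buffer, pH 7.5 | Times: 10–45 min incubation at room temperature | Detection: Fluorescence polarization | Replication: Duplicates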
BasE inh = inhibitors of Acinetobacter baumannii siderophore enzyme BasE; purified BasE, fluorescence polarization binding displacement; inhibition, % (test concentration not listed); hit rate 0.1% among 84,000; AID 485350;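 active means both replicates above 25% with normal brightness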;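 further: 0% = negative plate control signal and 100% = positive plate control signal; stock transfer was 100 nL into about 30 µL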
An asterisk follows results filed as active; nt = not tested or not shown; & = joins results of further samples. An excerpt. The share of hits here may be higher or lower than overall.

Start of the listing, in advance, four compounds:
SMILES | LANA-nucl inh | BasE inh
N#CC(C(=O)Nc1ccccc1Cl)=C1CCCC1 | -0.27 | 4.4
O=C(CSc1ccc(Cl)cc1)NC(=O)NC1CCCC1 | nt | 1.0
O=C1NC(=O)C(C2(O)C(=O)Nc3c(Cl)cc(Cl)cc32)C(=O)N1 (stereo not given) | nt | 2.1
O=C(CN(c1ccc2c(c1)OCCO2)S(=O)(=O)c1ccccc1)Nc1ccc(S(=O)(=O)N2CCOCC2)cc1 | -0.075 | 1.0

Main list, repeating the preview:
SMILES | LANA-nucl inh | BasE inh
N#CC(C(=O)Nc1ccccc1Cl)=C1CCCC1 | -0.27 | 4.4
O=C(CSc1ccc(Cl)cc1)NC(=O)NC1CCCC1 | nt | 1.0
O=C1NC(=O)C(C2(O)C(=O)Nc3c(Cl)cc(Cl)cc32)C(=O)N1 (stereo not given) | nt | 2.1
O=C(CN(c1ccc2c(c1)OCCO2)S(=O)(=O)c1ccccc1)Nc1ccc(S(=O)(=O)N2CCOCC2)cc1 | -0.075 | 1.0
CC(C)(C#N)NC1CC1 | nt | 0.2
COc1ccc(S(=O)(=O)N(Cc2cc3c(C)cc(C)cc3[nH]c2=O)CC2COCCO2)cc1 (stereo not given) | 0.33 | -0.7
C=CCn1c(C)cc(C(=O)CSc2nc(C)cc(C(F)(F)F)c2C#N)c1C | nt | 6.2
Cc1ccc(NC(=O)CN2C(=O)S/C(=C\c3cccc(O)c3)C2=O)cc1 | -0.41 | 0.0
O=C(NCC(c1cccs1)N1CCOCC1)c1ccc(NS(=O)(=O)c2cccs2)cc1 (stereo not given) | nt | 1.0
Cn1c(SCCC#N)nnc1-c1cccc(Cl)c1 | -0.11 | 1.7
CCOCCc1nnc(NC(=O)c2cccs2)s1 | 0.54 | 0.2
CC(=O)NCc1nnc2c3ccccc3c(-c3ccccc3)nn12 | 0.021 | 0.3

Taken from above:
Entry for Cc1ccc(NC(=O)CN2C(=O)S/C(=C\c3cccc(O)c3)C2=O)cc1 in BasE inh: 0.0
Entry for O=C(NCC(c1cccs1)N1CCOCC1)c1ccc(NS(=O)(=O)c2cccs2)cc1 (stereo not given) in BasE inh: 1.0
Entry for CC(=O)NCc1nnc2c3ccccc3c(-c3ccccc3)nn12 in BasE inh: 0.3

Further entries follow:
SMILES | LANA-nucl inh | BasE inh
CS(=O)(=O)c1ccc(Cl)c(NC(=O)c2ccc(C#N)cc2)c1 | nt | -0.5
O=C1c2ccc(Br)cc2C(=O)N1c1cc(Cl)ccc1O | -1.3 | 1.4
CC(=O)n1c(C)c(-c2ccccc2)c2cc(Cl)ccc21 | nt | 1.3
CC1CN(C(=S)NCCc2ccccc2)CC(C)O1 (stereo not given) | 0.67 | 2.6
CCN(C(=O)Cn1c(=O)oc2cc(S(=O)(=O)N3CCCCCC3)ccc21)c1ccccc1 | -0.45 | 0.7
Nc1ccc(S(=O)(=O)Nc2ccc(Cl)nn2)cc1 | -0.45&-0.12&0.25 | 0.2&1.4
CCSc1nnc(-c2cccc(NC(C)=O)c2)o1 | 0.22 | -1.3
Cc1ccc2onc(CNC(=O)Nc3ccccc3N3CCN(C)CC3)c2c1 | -0.38 | -2.7
O=C(/C=C/c1ccco1)OC(C(=O)c1ccccc1)C(=O)c1ccccc1 | nt | 1.3
CC(=O)Nn1c(C)nc2ccccc2c1=O | -0.14 | -3.4
c1ccc(N2CCN(c3ncnc4scc(-c5cccs5)c34)CC2)cc1 | -1.5 | 1.0
O=C(NCCN1C(=O)C2C3C=CC(C3)C2C1=O)OC1CCCCC1 (stereo not given) | 0.97 | -5.4
O=[N+]([O-])OCC(CO[N+](=O)[O-])O[N+](=O)[O-] | 0.013 | nt
O=C(CSc1ccccc1)Nc1c[nH]c(=O)[nH]c1=O | -0.46 | 2.3
CC1CCCC(C)N1C(=O)Cn1c(SCC(=O)NCc2ccco2)nc2ccccc21 (stereo not given) | -0.4 | 0.3
CCCCNC(=O)CC1SC(=NC(c2ccc(OC)cc2)c2c(O)[nH]c(=O)[nH]c2=O)NC1=O (stereo not given) | -0.26 | -0.1
CCOC(=O)C1=C(C)NC(C)=C(C(=O)OCC)C1C(=O)OCc1nnc(-c2ccccc2)o1 | nt | 1.8
COc1ccc(C2NCCC3(O)CCCCC23)cc1 (stereo not given) | -0.29 | -0.3
O=C1CC(NCCc2c[nH]c3ccccc23)C(=O)N1Cc1ccccc1 (stereo not given) | -0.4 | 3.4
N#Cc1ccc(OC(=O)c2cccc(-n3cccc3)c2)cc1 | nt | 0.6
Cc1nn(-c2ccccc2)c(-c2ccc(O)cc2O)c1-c1ccccn1 | nt | 1.0
CC(C)N(CC(N)=O)C(=O)c1ccc(F)c(S(=O)(=O)N2CCCCC2)c1 | nt | -0.2
CN1CCN(S(=O)(=O)Cc2cccc(C(F)(F)F)c2)CC1 | -0.37 | nt
Cc1cccc(C)c1NC(=O)CCCN1C(=O)NC2(CCCC2)C1=O | nt | 1.2

The last 2 compounds of the part above open the next one.
SMILES | LANA-nucl inh | BasE inh
CN1CCN(S(=O)(=O)Cc2cccc(C(F)(F)F)c2)CC1 | -0.37 | nt
Cc1cccc(C)c1NC(=O)CCCN1C(=O)NC2(CCCC2)C1=O | nt | 1.2
CC1CCN(C(=O)CSc2n[nH]c(-c3ccccc3)n2)CC1 | nt | -2.1
O=C(OCc1cc(=O)n2cc(Br)ccc2n1)c1cc(-c2ccco2)nc2ccccc12 | nt | 4.0
C#CCOc1cccc2oc(CCC)cc(=O)c12 | 0.007 | 0.5
Cc1cc(Oc2ccnc3cc(Cl)ccc23)ccc1Cl | nt | 4.7
S=C1NC2=C(CCCC2)C2(CCCCC2)N1 | -0.059 | 0.2
CC(C)(C)c1cc(N/C=C/C(=O)c2ccc(Cl)cc2)no1 | nt | 1.8
COCc1cc(C)nc(NN)c1C#N | -0.3 | 2.5
CCN(CC)S(=O)(=O)c1ccc(C(=O)NCCc2cc3ccc(OC)cc3[nH]c2=O)cc1 | 1.9 | -3.3
Cc1cc(C(C#N)c2nc3ccccc3o2)nc(N2CCN(C(c3ccccc3)c3ccccc3)CC2)n1 (stereo not given) | nt | -1.9
O/N=C(\c1ccccc1)C12CC3CC(CC(C3)C1)C2 | nt | 1.9
COC(=O)c1cc(NC2c3ncccc3C(=O)N2c2ccc(OC)cc2)cc(C(=O)OC)c1 (stereo not given) | -1.5 | -1.8
c1ccc(CSc2ncnc3sccc23)cc1 | nt | -0.5

By substructure, the compounds so far containing fluorine.
SMILES | LANA-nucl inh | BasE inh
C=CCn1c(C)cc(C(=O)CSc2nc(C)cc(C(F)(F)F)c2C#N)c1C | nt | 6.2
CC(C)N(CC(N)=O)C(=O)c1ccc(F)c(S(=O)(=O)N2CCCCC2)c1 | nt | -0.2
CN1CCN(S(=O)(=O)Cc2cccc(C(F)(F)F)c2)CC1 | -0.37 | nt

Additional entries
SMILES | LANA-nucl inh | BasE inh
CCn1c(-c2ccc(OC)cc2)csc1=Nc1ccc(C(=O)O)cc1 | nt | 0.6
COc1cc(OC)cc(C(=O)OCC(=O)NC2CC2)c1 | nt | 0.9
c1ccc(OCCn2c(-c3cccs3)nc3ccccc32)cc1 | -0.18 | -3.3
CCC(Nc1n[nH]c(=O)[nH]c1=O)C(=O)OC (stereo not given) | nt | -4.0
NCC(O)COCc1ccccc1 (stereo not given) | -0.051 | -2.3
O=C(Nc1ccc(Cl)cc1)Nc1cc(C(=O)NCC2CCCO2)ccc1N1CC2CC(C1)c1cccc(=O)n1C2 (stereo not given) | 0.57 | 2.0
CCN1CSC(=S)N(Cc2ccc(OC)cc2)C1 | -0.8 | -0.4
CN1CCN(C(=O)c2oc3ccccc3c2NC(=O)c2ccccc2)CC1 | nt | -2.7
CO[C@H]1/C=C/O[C@@]2(C)Oc3c(C)c(O)c4c(O)c(c5c(c4c3C2=O)NC2(CCN(CC(C)C)CC2)N=5)=NC(=O)/C(C)=C\C=C\[C@H](C)[C@H](O)[C@@H](C)[C@@H](O)[C@@H](C)[C@H](OC(C)=O)[C@@H]1C | -1.1 | -2.8
CCC(C)[C@H](NC(=O)c1ccco1)C(=O)O (stereo not given in full) | nt | 1.6
N#Cc1cc(C#N)c(SCc2cc3c(cc2Br)OCO3)nc1N | nt | -6.3
C#CCn1c(COc2ccccc2)nc2ccccc21 | -0.62 | -0.7
CCC1Oc2ccc(C)cc2N(CC(=O)NCCCN2CCN(Cc3ccccc3)CC2)C1=O (stereo not given) | 0.2 | -0.4
CC(Sc1nnnn1-c1ccccc1)C(=O)NC1CCCC1 (stereo not given) | nt | 0.8
Cc1cc(-c2ccccc2)n2ncc(-c3ccccc3)c2n1 | nt | 1.8
COc1ccc(S(=O)(=O)N2CCN(C)CC2)c(Cl)c1Cl | 0.51 | -1.4
COC(=O)c1cc(NC(=O)/C=C/C(=O)O)ccc1N1CCOCC1 | nt | 0.4
Cc1ccc(Cn2nc(C)c(/C=N/NC(=O)c3ccc4c(c3)OCO4)c2C)cc1 | nt | 0.4
COc1ccccc1NC(=O)COC(=O)C1CC2CCCC(C1)C2=O (stereo not given) | nt | 1.3
Cc1onc(-c2c(Cl)cccc2Cl)c1C(=O)c1ccc(F)cc1 | nt | 0.9
CN(Cc1ccc(C#N)cc1)S(=O)(=O)/C=C/c1ccccc1 | nt | 0.1
O=C(Oc1ccccc1)N1CCCCC1 | -0.053 | 0.9
CN1C(=O)SC(CC(=O)O)C1=O (stereo not given) | 0.34 | -0.1
Cc1ccc(/C(O)=C2\C(=O)C(=O)N(Cc3cccnc3)C2c2ccccn2)cc1 (stereo not given) | 0.41 | 6.2
OC(CSc1nc2ccccc2s1)C(F)(F)F (stereo not given) | 0.23 | nt
CSc1nc2sc3c(c2c(=O)n1-c1ccccc1)CCN(C)C3 | 0.22 | 0.6
NC(=S)/N=N/Nc1ccc(Cl)cc1 | nt | 3.7
COc1cc(CN(C)C(=O)c2cc(C)on2)ccc1OCc1ccccc1 | nt | -0.4
CC1(C)CC2(CCO1)OC(=O)CC2C(=O)NC1CCCCC1 (stereo not given) | -0.3 | 0.7
O=C(O)c1cc(N2CCNCC2)nc2ccccc12 | 0.48 | -1.3
Cc1nc(N)sc1N=Nc1cccc2ccccc12 | nt | 2.5
COc1ccc2c(c1OC)C(=O)OC2NN(C)c1cccc(F)c1C#N (stereo not given) | nt | 2.6
O=c1[nH]c2ccccc2n1CCCN1CCN(C(c2ccccc2)c2ccccc2)CC1 | -0.001 | nt
Cc1ccc2nc(CN3CCN(C/C=C/c4ccccc4)CC3)cn2c1 | nt | -2.8
CS(=O)(=O)NN1C(=O)c2ccccc2NC12CCCC2 | 0.42 | 1.3
CNC(=S)NNc1nncc2ccccc12 | -1.4 | 1.4
CC1CN(CC(=O)NC(=O)NCc2ccco2)CC(C)O1 (stereo not given) | nt | 2.0
O=c1[nH]c2c(n(C3CCCCC3)c1=O)CCC2 | nt | 0.3
NC(N)=Nc1ccc2c(c1)OCCO2 | -0.22 | 2.6
Cn1c(=O)c(C#N)cc2c(=O)n3ccccc3nc21 | -1.1 | 0.5
COC(=O)c1sc2ncn(N)c(=O)c2c1C | nt | 1.7
CCOC(=O)Cc1c(C(=O)OCC)sc(N)c1C#N | nt | 0.9
Cc1ccc(-c2cc(-c3ccccc3)nc(NN)n2)cc1 | -0.52 | 2.6
CCOC(=O)c1c(C)oc2nc(C)nc(N(C)c3cc(Cl)c(OC)cc3OC)c12 | nt | 2.7
O=C1CCSCC1 | nt | 3.0
Cc1cc(C(=O)/C(C#N)=C/Nc2ccc(Cl)cc2)c(C(F)(F)F)o1 | 1.3 | 0.3
CN(C)c1ccc(C(=O)OCC(=O)c2ccccc2Cl)cc1 | -0.66 | 3.9
COc1ccc2[nH]c3c(c2c1)CCn1c-3nc2ccccc2c1=O | 0.17 | -0.9
CC1c2nc3ccccc3n2C(CC(=O)NCc2ccccn2)C(=O)N1Cc1ccccc1 (stereo not given) | -0.42 | -0.6
Cc1cc(C)nc(N2CCCC(C)C2)n1 (stereo not given) | -0.046 | -0.4
CC1=C(C)CC2C(=O)N(c3ccc(N(C)C)cc3)C(=O)C2C1 (stereo not given) | nt | 0.4
Cc1cccc(-c2noc(CCC(=O)N(C)C)n2)c1 | -0.16 | -1.4
CCC(CO)NCc1ccc2c(c1)c1ccccc1n2CC (stereo not given) | 0.48 | -7.1
COCCNC(=O)C12CC3CCC(CC(C3)C1)C2 | 1.3 | -0.4
O=C(CCCc1nc(-c2ccccc2Cl)no1)Nc1ccccc1C(F)(F)F | -0.35 | 1.1
Cc1ccc(OCc2nc(C#N)c(N(C)C)o2)cc1 | 0.83 | -4.1
C[C@@H](C(=O)Nc1ccc(S(=O)(=O)N2CCCC2)cc1)N1C(=O)C2CC=CCC2C1=O (stereo not given in full) | nt | -0.1
COc1ccc(OCCOc2cccc(N)c2)cc1 | 0.85 | -0.5
COC(=O)C1=C(C)Nc2c(c(=O)n(C)c(=O)n2C)C1c1ccc(C)cc1 (stereo not given) | nt | 9.1
CC1CN(C(=O)c2cc(F)c(F)cc2Cl)CC(C)O1 (stereo not given) | -0.9 | 4.6

Next section.
SMILES | LANA-nucl inh | BasE inh
COC(=O)C1=C(C)NC(=S)NC1c1ccccc1 (stereo not given) | 0.47 | -0.6
CN1C(=O)/C(=C/c2c(N(C)C)nc3ccccn3c2=O)SC1=S | nt | -21
COc1ccc2cc(Br)ccc2c1CC(=O)N1CCOCC1 | -0.093 | -0.8
Cc1cc2c(cn1)C(CCC#N)(CCC#N)c1ccccc1-2 | 0.26 | -1.7
COc1ccc(CC(CN)c2ccccc2)cc1 (stereo not given) | 3 | -5.2
Cc1nc2c(cnn2-c2ccccc2)c(=O)n1NC(=O)Nc1ccc(Cl)c(Cl)c1 | nt | -1.5
C=C(C)CN(CC)Cc1ccc(O)cc1 | -0.21 | 0.4
